BasE inh = BasE siderophore enzyme inhibitors, primary screen, biochemical, Acinetobacter baumannii ATCC 17978, fluorescence polarization | purified BasE, fluorescence polarization binding displacement | actives 0.1% (n = 84,000) | inhibition, % (no concentration beside the values);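 active = both replicates above 25% with normal brightness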;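 note: 0% = negative plate control signal and 100% = positive plate control signal; stock transfer was 100 nL into about 30 µL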
KSHV LANA nucl = inhibitors of KSHV LANA-nucleosome binding, primary screen, biochemical, fluorescence polarization, FITC-LANA1-23, chicken nucleosomes. FITC-LANA1-23 / chicken nucleosome fluorescence polarization; hits give low values. z-score (test concentration not listed). actives 0.3% (n = 51,000);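 active = both repeat wells score below -2 in polarization z-score versus plate sample wells, excluding overly bright wells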;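 note: 100 nL library stock added to about 30 µL; numbers are from one replicate; some results filed as inactive read as strong as hits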
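Test system: purified chicken nucleosomes with FITC-labelled LANA N-terminal peptide (1-23); Input: 240 nM purified chicken nucleosomes (480 nM peptide binding sites), final; Medium: TEN-BT buffer, pH 7.5; Timing: 10–45 min, room temperature; Technique: fluorescence polarization, 480 nm excitation, 535 nm parallel and perpendicular emission; Replication: duplicates.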
* hit, by the source's call; & = joins results of further samples.

Cc1cccc(Nc2ncc3c(n2)CC(C)CC3=O)c1 (stereo not given) was read as BasE inh 2.2 and KSHV LANA nucl 1.2.
`CCCCN1COc2ccc3c4c(oc3c2C1)C(=O)c1ccccc1C4=O` gave BasE inh 11.
`Cc1cc(C)cc(NC(=O)CCNS(=O)(=O)c2ccc3[nH]c(=O)ccc3c2)c1` gave BasE inh -1.7 and KSHV LANA nucl -0.45.
CCCN(CCC)C(=O)C(C)Oc1ccccc1 (stereo not given) was read as BasE inh -20 and KSHV LANA nucl 0.58.
Screening OCCNCCSc1nnc(-c2cccs2)o1 returned BasE inh 2.5.
Cc1ccc(S(=O)(=O)N(C)CC(O)Cn2c3ccccc3c3ccccc32)cc1 (stereo not given) was read as BasE inh -2.1 and KSHV LANA nucl 0.13.
Screening CCS(=O)(=O)c1ccc2oc(Nc3cc(C)cc(C)c3)nc2c1 returned BasE inh -2.6.
For CCC(=O)N1c2ccc(S(=O)(=O)N(C)Cc3ccccc3)cc2CC1C (stereo not given) the results were BasE inh -1.0 and KSHV LANA nucl -0.21.
Cc1nnc(SCc2ccccc2C#N)o1 was read as BasE inh -1.3 and KSHV LANA nucl 0.23.
`CC1(C)Cc2c(c(N3CCOCC3)nc3sc(-c4ccc(C(=O)NN)o4)c(N)c23)CO1` gave BasE inh 6.4 and KSHV LANA nucl 0.3.
`CC(C)n1c(SCC(N)=O)nc2ccccc21` gave BasE inh -2.9 and KSHV LANA nucl 0.12.
For O=C(CCn1nnc2ccccc21)Nc1nnc(COc2ccccc2F)s1 the results were BasE inh -1.8 and KSHV LANA nucl -1.5.
c1ccc2c(c1)nc1n2CCN1 was read as BasE inh 4.7 and KSHV LANA nucl -0.003.
Screening Cc1cc(C)cc(NC(=O)c2cc3ccccc3o2)c1 returned BasE inh -2.2.
Screening Cc1nn(C(CC(=O)O)C(=O)O)c(C)c1Cl (stereo not given) returned BasE inh 0.4.
For NCCSSCCN the results were BasE inh -1.1 and KSHV LANA nucl -0.89.
`CN(C)C1(CNC(=O)Cc2n[nH]c(=O)c3ccccc23)CCCCC1` gave BasE inh 1.0.
Screening CC(C)(C)c1ccc(CSc2nnc(-c3ccco3)n2-c2ccccc2)cc1 returned BasE inh 3.5 and KSHV LANA nucl -0.66.
NC(=O)NC(CC(=O)Nc1cccc(-c2nnc3n2CCCCC3)c1)c1ccccc1Cl (stereo not given) was read as BasE inh -0.5.
CCOC(=O)c1oc2cc(O)cc(O)c2c(=O)c1-c1ccc(OC)c(OC)c1 was read as BasE inh 0.5 and KSHV LANA nucl -1.3.
For CC(Oc1ccccc1)c1ccnc(N)n1 (stereo not given) the results were KSHV LANA nucl -0.26.
Screening C=CCSc1nc2c(c(=O)n1Cc1ccco1)C1(CCCCC1)Cc1ccccc1-2 returned BasE inh -0.2.
C=CCN(c1ccccc1)S(=O)(=O)c1cccc(C(=O)N2CCN(c3ncccn3)CC2)c1 was read as BasE inh 0.6.
`CCC(=O)N1CCc2cc(S(=O)(=O)CCC(=O)N(C)c3ccc(OC)cc3OC)ccc21` gave BasE inh 0.9 and KSHV LANA nucl -0.17.
For COc1ccc(/C=N/n2cnc3c([nH]c4ccc(OC)cc43)c2=O)cc1 the results were BasE inh 1.5.
O=C(CSc1nc2ccccc2c(=O)n1-c1ccccc1)NCCCN1CCOCC1 was read as BasE inh 1.4 and KSHV LANA nucl -0.31.
Cc1cc(C(=O)N(c2ccccc2)C(C)C2CC2)c(Cl)cc1Cl (stereo not given) was read as BasE inh 2.2.
CN(C)CCCNCc1cccn1C was read as BasE inh 6.9 and KSHV LANA nucl -2.8.
Screening CCC(CC)NC(=O)Cn1[nH]c(=O)c2ccccc2c1=O returned BasE inh -2.1.
For O=C(Oc1ccc(N(Cc2ccco2)C(=O)Cn2cnc3ccccc3c2=O)cc1)c1ccccc1F the results were BasE inh -2.9 and KSHV LANA nucl 0.62.
CNc1nc(Oc2ccc(=O)[nH]n2)nc(N(C)C)n1 was read as BasE inh -1.1 and KSHV LANA nucl -0.18.
`Cc1ccc(F)cc1NC(=O)Cc1ncc(C(F)(F)F)cc1Cl` gave KSHV LANA nucl 0.9.
For CCN(CC)c1ncc2c(=S)[nH]c(=S)[nH]c2n1 the results were BasE inh 0.2.
CCOc1ccc(/C=N\n2c(C)nnc2C)cc1 was read as BasE inh 2.9.
Screening CC(=O)Nc1ccc(NS(=O)(=O)c2cn(C)cn2)cc1 returned BasE inh 2.3 and KSHV LANA nucl 0.56.
Screening CC(C)(C)NNC(=S)Nc1cccc(F)c1 returned BasE inh 1.9 and KSHV LANA nucl -0.021.
Screening CN(C(=O)c1nn(-c2ccccc2)c(=O)c2ccccc12)C1CCS(=O)(=O)C1 (stereo not given) returned BasE inh 2.0.
O=C(NCC1OCCc2ccccc21)C(c1ccccc1)c1ccccc1 (stereo not given) was read as BasE inh 0.9.
CCOC(=O)c1ccc2ncc(C(=O)OCC)c(Nc3ccc(N(C)C)cc3)c2c1 was read as BasE inh 0.4 and KSHV LANA nucl -0.21.
`Cc1cc(C)c(NC(=O)C2CC(=O)N(C3CCCC3)C2)c(C)c1` (stereo not given) gave BasE inh 2.5.

Pulled by structure from the entries so far, 2 records:
Cc1ccc(S(=O)(=O)N(C)CC(O)Cn2c3ccccc3c3ccccc32)cc1 (stereo not given) was read as BasE inh -2.1 and KSHV LANA nucl 0.13.
Screening CCS(=O)(=O)c1ccc2oc(Nc3cc(C)cc(C)c3)nc2c1 returned BasE inh -2.6.

Next part
For CCOC(=O)c1cc2c(=O)n3ccccc3nc2n(C2CCCCC2)c1=NC(=O)c1cccnc1 the results were BasE inh 1.9 and KSHV LANA nucl -2.6*.
Screening O=C(NC(=S)c1ccccc1)C1CC1 returned BasE inh 1.1.
Screening COC(=O)c1ccc(C2NC(=O)NC3=C2C(=O)CC(C)(C)C3)cc1 (stereo not given) returned BasE inh -0.5.
C=CCOn1c(=O)c(-c2ccc(C)cc2)[n+]([O-])c2ccccc21 was read as BasE inh 2.3 and KSHV LANA nucl -0.63.
`COc1ccc(NC(=O)COc2nc(N(C)C)nc(N(C)C)n2)cc1` gave BasE inh -2.8 and KSHV LANA nucl 0.024.
COc1ccc(OC)c(/C=C/C(=O)N(C)CCOc2ccccc2)c1 was read as BasE inh 1.7.
Cc1ccc2nc3sc(C#N)c(N)c3cc2c1 was read as BasE inh 0.5 and KSHV LANA nucl -3.3.
Cc1oc(-c2cccc(F)c2)nc1CSCC(=O)O was read as BasE inh -1.4 and KSHV LANA nucl -0.47.
O=C1Nc2ccccc2/C1=N\n1cnc2ccccc21 was read as BasE inh 1.3.
`Cc1ccc(C)c(NC(=O)C(NC(C)C)c2ccccc2)c1` (stereo not given) gave BasE inh 0.5.
`COc1ccc(NC(=O)CCSc2nc(C)cs2)cc1` gave BasE inh 3.1 and KSHV LANA nucl 0.62.
`COc1ccc(NC(=O)c2ccc3ncsc3c2)cc1` gave BasE inh 1.9.
CCN(C(=O)/C=C/c1ccco1)c1nc2c(C)cccc2s1 was read as BasE inh -0.5.
For CCn1c(SCC(=O)c2ccc(C)cc2)nnc1C1CC1 the results were BasE inh 2.9 and KSHV LANA nucl 0.5.
For Cn1nc(C(F)(F)F)c(-c2cccc(C(F)(F)F)c2)c1NC(=O)c1nccnc1C(=O)O the results were BasE inh 3.4.
`O=C(Nc1ccccc1C(=O)O)c1cccs1` gave BasE inh 2.5 and KSHV LANA nucl -0.89.
COC(=O)CSCc1nc(N)nc(Nc2ccccc2C)n1 was read as BasE inh -1.9.
`O=S(=O)(Nc1ccccc1N1CCCCC1)c1ccccc1` gave BasE inh -2.0 and KSHV LANA nucl 0.054.
COc1cccc(S(=O)(=O)NCc2ccc(C(=O)N3CCCC3)cc2)c1 was read as BasE inh 1.7 and KSHV LANA nucl -1.7.
COc1ccc2c(CNCc3ccccc3)c(C(=O)O)[nH]c2c1 was read as BasE inh 0.8 and KSHV LANA nucl 0.36.

16 neighbouring compounds from above:
`COc1ccc(NC(=O)COc2nc(N(C)C)nc(N(C)C)n2)cc1` gave BasE inh -2.8 and KSHV LANA nucl 0.024.
COc1ccc(OC)c(/C=C/C(=O)N(C)CCOc2ccccc2)c1 was read as BasE inh 1.7.
Cc1ccc2nc3sc(C#N)c(N)c3cc2c1 was read as BasE inh 0.5 and KSHV LANA nucl -3.3.
Cc1oc(-c2cccc(F)c2)nc1CSCC(=O)O was read as BasE inh -1.4 and KSHV LANA nucl -0.47.
O=C1Nc2ccccc2/C1=N\n1cnc2ccccc21 was read as BasE inh 1.3.
`Cc1ccc(C)c(NC(=O)C(NC(C)C)c2ccccc2)c1` (stereo not given) gave BasE inh 0.5.
`COc1ccc(NC(=O)CCSc2nc(C)cs2)cc1` gave BasE inh 3.1 and KSHV LANA nucl 0.62.
`COc1ccc(NC(=O)c2ccc3ncsc3c2)cc1` gave BasE inh 1.9.
CCN(C(=O)/C=C/c1ccco1)c1nc2c(C)cccc2s1 was read as BasE inh -0.5.
For CCn1c(SCC(=O)c2ccc(C)cc2)nnc1C1CC1 the results were BasE inh 2.9 and KSHV LANA nucl 0.5.
For Cn1nc(C(F)(F)F)c(-c2cccc(C(F)(F)F)c2)c1NC(=O)c1nccnc1C(=O)O the results were BasE inh 3.4.
`O=C(Nc1ccccc1C(=O)O)c1cccs1` gave BasE inh 2.5 and KSHV LANA nucl -0.89.
COC(=O)CSCc1nc(N)nc(Nc2ccccc2C)n1 was read as BasE inh -1.9.
`O=S(=O)(Nc1ccccc1N1CCCCC1)c1ccccc1` gave BasE inh -2.0 and KSHV LANA nucl 0.054.
COc1cccc(S(=O)(=O)NCc2ccc(C(=O)N3CCCC3)cc2)c1 was read as BasE inh 1.7 and KSHV LANA nucl -1.7.
COc1ccc2c(CNCc3ccccc3)c(C(=O)O)[nH]c2c1 was read as BasE inh 0.8 and KSHV LANA nucl 0.36.

(cont.)
C=Cn1cc[n+](CC(=O)c2ccc(C)cc2)c1 was read as BasE inh -3.3 and KSHV LANA nucl -0.98.
C#C[C@]1(O)CCC2C3CCc4cc(O)ccc4C3CC[C@@]21C (stereo not given in full) was read as BasE inh -3.1 and KSHV LANA nucl -0.69&-0.15.
For O=C(CN1CSCC1=O)Nc1ccc2nc(N3CCOCC3)sc2c1 the results were BasE inh 7.8.
For Cc1c(/C(Cc2ccccc2)=N/O)c2ccccc2n1C the results were BasE inh 0.2 and KSHV LANA nucl 0.43.
O=c1cc(CN2CCN(c3ccccc3)CC2)occ1OC/C=C/c1ccccc1 was read as BasE inh -0.5 and KSHV LANA nucl -0.27.
For CC(C)(C)/C(O)=C/c1nc2ccccc2oc1=O the results were BasE inh 1.3.
For Cc1cc(C(=O)NCc2csc(-c3cccs3)n2)nn1C the results were BasE inh -2.4 and KSHV LANA nucl 1.2.
Screening CC(C)(/C=N/Nc1nc2ccccc2o1)CO returned BasE inh 0.7 and KSHV LANA nucl 2.4.
`O=C(CNc1ccccc1OC(F)F)N1CCc2ccccc21` gave BasE inh 2.5.
`O=C(CSCc1cnn(-c2ccccc2)c1-n1cccc1)NCCC1=CCCCC1` gave BasE inh -1.8 and KSHV LANA nucl -0.41.
`O=C1CN(C(=S)NCCN2CCOCC2)c2ccccc2N1` gave BasE inh 2.0.
Screening C=CCn1c(=S)[nH]c2cc(C(=O)O)ccc2c1=O returned BasE inh 3.1.
`O=C(O)Cn1cnc2scc(-c3cccs3)c2c1=O` gave BasE inh 0.7.
COc1cc(CN(C)C)c(O)c(CN(C)C)c1 was read as BasE inh -0.7.
For N#CC1(NC(=O)COC(=O)C2CCN(C(=O)Nc3ccccc3)CC2)CCCCC1 the results were BasE inh 1.0.
For COCC(=O)Nc1nc(-c2ccccc2)cs1 the results were BasE inh -0.6 and KSHV LANA nucl -0.19.
For COc1ccc2nc(-n3c(C)ccc3C)sc2c1 the results were BasE inh 0.4 and KSHV LANA nucl -0.85.
CC1CCCCN1C(=O)COC(=O)c1n[nH]c2ccccc12 (stereo not given) was read as BasE inh 3.0.
Screening CN(c1ccc(C(=O)O)cc1)S(C)(=O)=O returned BasE inh 3.2.
For Cc1cc(C)c2oc3nc(N)c(C#N)cc3c(=O)c2c1 the results were BasE inh -1.1 and KSHV LANA nucl 0.76.
CC1=N/C(=C2/C=C(c3cccs3)Oc3ccccc32)C(=O)O1 was read as BasE inh 6.2 and KSHV LANA nucl -0.41.
COc1cc2c(cc1NS(C)(=O)=O)c1c(n2S(C)(=O)=O)CCC1 was read as BasE inh 1.0 and KSHV LANA nucl 0.2.
Screening CC1(C)CC(N2CCN(C3CC(C)(C)NC(C)(C)C3)CC2)CC(C)(C)N1 returned KSHV LANA nucl 1.1.
CN(C)C1(CNC(=O)C2=NN(C3CCS(=O)(=O)C3)C(=O)CC2)CCCCC1 (stereo not given) was read as BasE inh 1.8.
For COc1ccc(CN2CCc3c([nH]c4ccccc34)C2)cc1 the results were BasE inh -3.0 and KSHV LANA nucl -0.15.
O=C(COC(=O)C1=COCCO1)Nc1ccc2[nH]c(=O)[nH]c2c1 was read as BasE inh -4.1.
Screening O=C(O)C1C2CC=CC2c2cc(Cl)cc3c2N1CC1CC=CC31 (stereo not given) returned BasE inh 6.8.
NNC(=O)c1oc2nc(-c3ccccc3)cc(-c3ccccc3)c2c1N was read as BasE inh 1.6.
`COCCNC(=O)C1Sc2nnc(C)n2NC1c1ccc(OC)c(Cl)c1` (stereo not given) gave BasE inh -1.9 and KSHV LANA nucl -0.4.
`S=c1nn[nH]n1CC1CCCO1` (stereo not given) gave BasE inh 1.1.
`CCN(C(=O)CCn1c(=O)oc2ccccc21)c1ccccc1C` gave BasE inh -3.3.
`O=S(=O)(c1ccc(O)cc1)N1CCOCC1` gave BasE inh 0.9.
O=C(CCN1C(=O)C2CC=CCC2C1=O)OCc1ccc(Cl)cc1 (stereo not given) was read as BasE inh 0.9.

Bioassay records deposited in PubChem BioAssay by ICCB-Longwood Screening Facility, Harvard Medical School.

These rows are one share of the data; rates above refer to the full screens.
